# HSV replic up: enhancers of HSV replication in host cells, fold increase, host cell viability | HSV replication augmentation in cells | maximum fold increase | 220,000 compounds, 0.005% hits | AID 1956, 2009;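 active means peak rise of 1.5-fold or more in the series; inconclusive means self-fluorescent or not available for retest; tested in PC3 cells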;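 further: first round at 10 µM; read as green reporter fluorescence; hits show the peak of a series up to 25 µM; 1 = signal of infected wells without compound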
# GALR2 agonist: GALR2 receptor agonists, primary screen, cell-based. activation, %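 (tested at 5 µM)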. Galanin receptor type 2 (Homo sapiens), O43603. 140,000 compounds, 0.48% hits. GALR2-expressing cells, agonist activation read-out. AID 803, 2007;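 active means above mean plus 3 SD of all compounds, about 5% in these data, not always enough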;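 further: 0% = vehicle buffer wells and 100% = reference agonist at full effect; tested in CHO reporter cells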
# Target sequence (O43603 whole entry, looked up): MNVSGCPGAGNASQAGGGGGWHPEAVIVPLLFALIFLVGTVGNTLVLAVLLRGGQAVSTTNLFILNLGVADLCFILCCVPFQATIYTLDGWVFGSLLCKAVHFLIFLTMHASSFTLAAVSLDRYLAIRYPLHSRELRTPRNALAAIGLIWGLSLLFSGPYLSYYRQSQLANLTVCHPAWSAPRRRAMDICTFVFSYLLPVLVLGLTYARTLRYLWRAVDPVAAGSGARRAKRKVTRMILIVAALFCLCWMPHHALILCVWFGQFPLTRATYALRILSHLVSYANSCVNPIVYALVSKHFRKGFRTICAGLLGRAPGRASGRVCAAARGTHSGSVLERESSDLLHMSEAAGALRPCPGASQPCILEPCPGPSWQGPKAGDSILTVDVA
# PKD1 inh: inhibitors of human PKD1 kinase, biochemical, fluorescence polarization | PKD1 kinase fluorescence polarization assay | inhibition, %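 (about 10 µM by stock and volumes)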 | 200,000 compounds, 0.056% hits;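 active means inhibition of 50% or more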;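 further: controls were vehicle for no effect and a reference inhibitor for full effect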
# RGS16-Gao: modulators of RGS16 binding to Galphao, primary screen, biochemical, human proteins, multiplexed bead flow cytometry; Regulator of G-protein signaling 16 (Homo sapiens) + Guanine nucleotide-binding protein …; binding response (% of control), % at 10 µM; 220,000 compounds, 0.38% hits; bead-based flow cytometry RGS16-Galphao binding, fluorescence; actives lie on both sides;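 active means below 25% or above 175%, edge rows of some plates excepted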;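 further: Galphao activated by GDP with aluminum fluoride before binding; 100% = wells without compound and 0% = beads without RGS; some results beyond the cut were filed as inactive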
# Target sequence (O15492 whole entry, looked up): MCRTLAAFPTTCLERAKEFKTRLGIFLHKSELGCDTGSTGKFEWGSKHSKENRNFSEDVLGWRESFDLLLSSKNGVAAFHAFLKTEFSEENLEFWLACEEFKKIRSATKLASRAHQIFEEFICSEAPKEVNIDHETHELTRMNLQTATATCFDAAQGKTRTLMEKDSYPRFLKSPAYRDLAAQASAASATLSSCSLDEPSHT
# Target sequence (P09471 whole entry, looked up): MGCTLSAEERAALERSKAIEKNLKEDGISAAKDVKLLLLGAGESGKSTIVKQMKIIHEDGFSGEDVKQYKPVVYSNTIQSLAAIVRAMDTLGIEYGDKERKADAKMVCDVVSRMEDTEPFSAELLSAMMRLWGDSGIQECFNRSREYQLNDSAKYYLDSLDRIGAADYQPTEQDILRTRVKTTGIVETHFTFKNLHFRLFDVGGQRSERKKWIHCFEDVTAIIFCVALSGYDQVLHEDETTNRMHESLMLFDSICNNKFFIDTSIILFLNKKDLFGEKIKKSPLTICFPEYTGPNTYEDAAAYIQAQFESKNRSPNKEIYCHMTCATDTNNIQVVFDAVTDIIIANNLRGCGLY
# INS promoter inh: inhibitors of insulin promoter-driven GFP, primary screen, imaging, TRM-6 cells (human fetal islet line), eGFP reporter, cell count | reporter expression induced with tamoxifen | inhibition, % at 2 µM | 130,000 compounds, 0.9% hits;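 active means inhibition above the mean plus 3 SD, with well images judged a real hit on visual review, cut at about 60% in these data, passing the limit was not always enough; inconclusive means inhibition over the cutoff but images rejected on review; inactive means inhibition not above the cutoff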
# INS promoter inh cell count: second read-out of INS promoter inh, no call of its own (marks repeat the call); normalized cell count, %; measured here: cell count, toxicity; reference of the scale not given here;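 cells exposed to compound for 48 h; stained nuclei by imaging scaled within each plate; lower means fewer cells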
# HSV replic up primary fold: also measured in HSV replic up; calls as there; fold increase; compound at 10 µM; measured here: primary screen fold increase 10 uM; tested in PC3 cells;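 GFP signal in the first replicate; 1 = infected wells without compound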
# Numbers without * were called inactive; i = inactive; ? = inconclusive; . = not tested or not shown.
compound	HSV replic up	HSV replic up primary fold	GALR2 agonist	PKD1 inh	RGS16-Gao	INS promoter inh	INS promoter inh cell count
CCOC(=O)c1ccccc1N/C=C1\CCCCC1=O	i	0.65	-0.9	1	101	20	143
CC(=O)C1=C(O)C(=O)N(CCN(C)C)C1c1ccc(Cl)cc1 (centres undefined)	i	1.1	-2.1	0	105	-13	120
CC1CCCN(S(=O)(=O)c2ccc3c(c2)CCN3C(=O)C2CCC2)C1 (centres undefined)	i	1.1	-1.6	9	74	.	.
CCOc1ccc(C2NC(=S)NC3=C2CCc2ccccc23)cc1 (centres undefined)	i	1.1	.	.	104	.	.
Cc1cc(C)n(S(=O)(=O)c2ccc(C)c(C)c2C)n1	i	0.95	-3.4	-9	84	-32	78
CC(C)C(=O)N1CCN(C2=NS(=O)(=O)c3ccccc32)CC1	i	0.93	-2.1	-1	109	-28	213
COc1ccc(NC(=O)C(c2ccccc2)N(C)C(=O)c2ccc(=O)[nH]c2)cc1 (centres undefined)	i	0.93	0.2	2	80	-15	90
CSc1ccc(S(=O)(=O)NCCCOC(C)C)cc1	i	1.1	.	0	101	.	.
CCOc1ccccc1NC(=O)N1CCCC1C(=O)Nc1ccc(-n2cnnn2)c(C)c1 (centres undefined)	i	0.91	-0.7	7	95	-4	96
Cc1ccc(Sc2cc(N3CCOCC3)nc(-c3ccccc3)n2)cc1	.	.	-2.2	7	99	.	.
Cc1cccc(-n2c(Cn3nc(C)c([N+](=O)[O-])c3C)n[nH]c2=S)c1	i	0.87	-1.1	-2	102	0	112
C=CCn1c(Cc2cccs2)nnc1SC/C=C/c1ccccc1	i	0.94	-2.3	-3	93	-81	122
Cc1c(N=Cc2ccc(Br)s2)cccc1[N+](=O)[O-]	i	1.1	-3.3	-3	90	.	.
COCCn1c(C)cc(C(=O)Cn2nc(C(=O)O)c3ccccc3c2=O)c1C	i	0.9	.	-5	99	.	.
Cc1cc(C)c(CN2CCN(Cc3ccc(C)o3)C(CCO)C2)c(-n2cccn2)c1 (centres undefined)	i	0.9	.	0	113	.	.
COCCNC(=O)C(=O)NCC1OCCCN1S(=O)(=O)c1cccs1 (centres undefined)	i	0.9	-0.9	7	93	.	.
CCc1nnc2c(N(C)C)nc3ccccc3n12	i	0.91	-1.6	-5	109	15	87
Cc1nn(-c2ccccc2)c(C)c1-c1cc(C(=O)N/N=C/c2ccc(O)cc2)[nH]n1	i	0.67	.	.	99	.	.
CC1=C(C(=O)Nc2ccccn2)C(c2ccc(Br)cc2)NC(=S)N1 (centres undefined)	i	0.92	0.1	4	106	.	.
Cc1cc(C)c2cccc(N)c2n1	i	1.3	.	1	100	.	.
Cc1ccc(NC(=O)C2CC(=O)n3c(nc4ccccc43)N2)cc1C (centres undefined)	i	0.88	.	.	99	.	.
CCOC(=O)c1ccc(NC(=O)CSc2nc3c(c(=O)n2C)SC(C)C3)cc1 (centres undefined)	i	0.87	-4.3	-10	80	.	.
CC(C)NC(=O)c1ccccc1-c1nc(-c2ccccc2Cl)no1	i	1	-1.0	-6	97	.	.
O=C1c2ccccc2C(=O)N1c1ccc(Cc2ccncc2)cc1	i	1.1	.	.	95	.	.
Cc1cc(C)cc(NC(=O)Nc2cc(S(=O)(=O)N(C)C)ccc2C)c1	i	0.9	.	.	107	.	.
CCCCc1nc2ccccc2c(NC(=O)CN2CCN(C)CC2)c1CCC	i	0.96	-1.2	-13	132	-64	78
COC(=O)/C(=C\Nc1ccccc1)NC(=O)c1ccc(Cl)cc1Cl	i	0.94	-2.2	-4	107	-21	108
Cc1ccccc1N1CN(Cc2ccco2)CNC1=S	i	1	0.1	-10	100	3	137
O=C(CNS(=O)(=O)c1ccc(Br)s1)NCC1COc2ccccc2O1 (centres undefined)	i	0.87	-2.5	1	101	.	.
N#CCCn1nc(-c2ccccc2)cc1-n1c(C(F)(F)F)nc2ccccc21	i	0.82	-2.5	27	96	0	39

# The closing three compounds of the part above open the next one.
compound	HSV replic up	HSV replic up primary fold	GALR2 agonist	PKD1 inh	RGS16-Gao	INS promoter inh	INS promoter inh cell count
Cc1ccccc1N1CN(Cc2ccco2)CNC1=S	i	1	0.1	-10	100	3	137
O=C(CNS(=O)(=O)c1ccc(Br)s1)NCC1COc2ccccc2O1 (centres undefined)	i	0.87	-2.5	1	101	.	.
N#CCCn1nc(-c2ccccc2)cc1-n1c(C(F)(F)F)nc2ccccc21	i	0.82	-2.5	27	96	0	39
FC(F)(F)c1nc2nncn2c2c1CCCCC2	i	0.99	-2.3	-9	110	.	.
COc1cccc(C2=NOC(C(=O)NC(C)C)C2)c1 (centres undefined)	i	1.1	-1.1	-12	94	.	.
CC(Sc1n[nH]c(N)n1)C(=O)Nc1ccccc1-c1ccccc1 (centres undefined)	i	0.9	.	4	100	.	.
CC(=O)N(CN1C(=O)c2ccccc2C1=O)c1ccccc1	i	0.99	-5.6	-6	92	21	81
O=C(O)c1cscn1	i	0.87	0.5	5	101	.	.
OC1(c2ccccc2Cl)NN=C2CCCCCN21 (centres undefined)	i	0.89	.	-3	100	-15	98
COc1ccc(OC)c2sc(N3CCCCC3)nc12	i	0.92	-0.5	-9	101	.	.
CCOc1ccc(CN2CCNC(=O)C2CC(=O)NCCC2=CCCCC2)cc1 (centres undefined)	i	0.99	.	1	100	.	.
Cc1cc(N(C)NC(=S)Nc2ccccc2)nc(C)n1	i	1	-0.9	-6	126	0	102
COc1cc(/C=N\NC(=O)C2C(=O)NCC2c2ccccc2)cc(OC)c1O (centres undefined)	.	.	-3.2	2	105	.	.
CCC(=O)Nc1nc2ccccc2n1CCN(C)C	i	0.96	-2.8	0	98	.	.
CC(C)CN(C(=O)CSc1nn(-c2ccc(Cl)cc2)c(=S)s1)C1CCS(=O)(=O)C1 (centres undefined)	i	0.96	-0.7	2	100	19	88
CCOC(=O)C1=C(N)OC(CCl)=C(C#N)C1c1ccsc1 (centres undefined)	i	1.1	-0.7	-1	81	0	49
Cc1ccc(-n2c(SCC(=O)Nc3cc(S(=O)(=O)N4CCOCC4)ccc3Cl)nc3ccccc3c2=O)cc1	i	0.88	1.0	-19	110	-16	71
c1ccc(-c2nc(-n3ccnc3)nc(-n3ccnc3)n2)cc1	i	0.68	0.8	10	92	-10	80
CSc1ccc(CN(C)C(C)C(=O)Nc2ccc(F)c(F)c2F)cc1 (centres undefined)	i	0.96	.	-5	98	-60	132
CC(C)(C)C1=C(C#N)C(c2ccncc2)C(C#N)=C(N)O1 (centres undefined)	i	1	0.9	-17	102	-7	95
COc1cccc(-c2nn(C)c3sc(C(=O)N4CCN(c5ccccn5)CC4)cc23)c1	i	0.8	-0.3	-1	95	.	.
Cc1ccsc1CNn1cnnc1SCc1ccc(Cl)cc1	i	0.76	-2.4	-10	115	-59	116
CC1(C)Cc2c(ccc3ccccc23)/C(=C/C#N)N1	i	0.81	-0.4	14	100	23	104
CCOc1ccc(Nc2nc(Cc3nnc(SCC(=O)NCC4CCCO4)n3C)cs2)cc1 (centres undefined)	.	.	-0.9	-7	88	.	.
CCc1ccc(Nc2nnc(SCC(=O)Nc3cccc(S(=O)(=O)NC4=NCCCCC4)c3)s2)cc1	i	0.97	-1.2	-8	83	31	86
O=C(NNc1nc2c(F)cccc2s1)c1ccc(F)cc1	i	0.93	.	-1	104	-6	122
CCC(=O)NC(c1ccc(C)cc1)c1cc([N+](=O)[O-])c2cccnc2c1O (centres undefined)	i	0.75	-1.9	-15	13	44	126
CCOC(=O)c1nn(-c2ccc(C)c(C)c2)cc1O	i	1.1	-3.1	-2	103	37	101
CC(C)=C1C2CCC1C(C(=O)NCc1ccccc1)C2C(=O)O (centres undefined)	i	0.69	-4.1	-2	106	.	.
C(=N\N(Cc1ccccc1)c1ccccc1)/c1ccco1	i	1.1	.	-11	102	-10	142
COCCCNC(=O)Cn1c(=O)n(CC(=O)NCCc2ccc(OC)c(OC)c2)c(=O)c2sccc21	i	1	.	0	101	22	71
CCN(Cc1ccccc1)c1ccc(/C=C(\C#N)c2ccccn2)cc1	?	.	0.3	0	98	.	.
COc1ccc(-c2nc(C#N)c(NCCCN3CCOCC3)o2)cc1	.	.	-3.2	-4	101	.	.
COCCn1c(-c2ccc(Cl)cc2)cnc1SCC(=O)NCc1cccs1	i	0.79	-1.5	1	92	-52	97
Cc1cc(NC(=O)C(=O)NCCN2CCN(S(C)(=O)=O)CC2)ccc1Br	i	0.92	.	-7	99	6	106
O=C(NCCc1c[nH]c2ccccc12)/C(=C\c1cccs1)NC(=O)c1ccccc1	i	1.1	-0.3	-7	156	20	68
C=CCNC(=O)CCCC(=O)NCC=C	i	0.72	-1.0	-6	101	-38	85
O=C(CCC(=O)N(CC(=O)NC1CCCC1)Cc1cccs1)Nc1nccs1	i	0.95	.	-9	103	.	.
COc1ccc(/C(O)=C2/C(=O)C(=O)N(CC3CCCO3)C2c2ccc(OC)c(OC)c2)cc1 (centres undefined)	i	0.9	-3.3	0	106	-12	102
NC(=O)c1nsc(C(=O)N(CC(=O)NC2CCCC2)Cc2ccc3c(c2)OCO3)c1N	i	0.97	.	2	101	.	.
Cc1c(NC(=O)CSc2nnnn2-c2ccc(O)cc2)c(=O)n(-c2ccccc2)n1C	i	0.73	-0.8	-4	107	-100	97
CS/C(N)=N/S(=O)(=O)c1ccc(NC(C)=O)cc1	i	0.88	.	.	87	.	.
CS(=O)(=O)N1CCN(CCN2C(=O)c3cccc4cccc(c34)C2=O)CC1	i	0.91	.	-14	104	.	.
COc1ccc(N2C(=O)CC(Sc3ncccc3C(=O)O)C2=O)cc1 (centres undefined)	i	0.83	-1.5	-2	159	39	91
CCOC(=O)C1(Cc2cccc(OC)c2)CCCN(Cc2cnn(C)c2)C1 (centres undefined)	i	1.1	.	2	97	.	.
Cc1cnn(-c2cc(N/N=C/c3cccc(F)c3)ncn2)c1	i	0.83	-1.0	1	117	-7	99
CCOC(=O)c1c[nH]c(=O)c(Br)c1O	i	1	-1.0	11	50	10	115
CCOc1cc([C@@H]2C[C@H]3CN(c4ccccc4)C(=O)[C@]34CCCN24)ccc1OC	i	0.67	.	-4	97	.	.
COc1ccc(/C=N/n2cnc3c([nH]c4ccccc43)c2=O)cc1COc1ccccn1	i	1	.	-1	92	50	130
COC(=O)CCCC1=CC2=CC(=O)C(C)(OC(=O)CCc3ccccc3)C(=O)C2=CO1 (centres undefined)	i	0.98	.	.	96	.	.
O=C(N/N=C/c1ccc(-c2cccc(C(F)(F)F)c2)o1)c1ccccc1Br	i	0.75	-1.0	5	105	20	110
Cc1cc(Cl)ccc1Oc1nccc(N(C)C)c1C#N	i	0.85	-1.9	-12	105	23	60
CCCC(=O)Nc1nc2ccc3nc(C)sc3c2s1	i	0.99	-1.3	4	104	0	119
CCC(CC)NC(=O)c1ccccc1Oc1ccccc1	i	0.8	-0.8	-4	103	-20	170
COc1cc(NC(=O)c2ccccc2Cl)c(OC)cc1NC(=O)CN1CCCCC1	i	0.81	.	-1	106	36	151
CCCOc1ccc(/C=N/NC(=O)CSc2ccccn2)cc1OC	i	1.1	.	.	102	.	.
COc1ccc(OC)c(NC(=O)CNC(=O)Cn2cnc3ccccc3c2=O)c1	i	0.76	-1.1	-9	101	-50	134

# Among those listed so far, 4 have a furan ring, fused or not.
compound	HSV replic up	HSV replic up primary fold	GALR2 agonist	PKD1 inh	RGS16-Gao	INS promoter inh	INS promoter inh cell count
Cc1cc(C)c(CN2CCN(Cc3ccc(C)o3)C(CCO)C2)c(-n2cccn2)c1 (centres undefined)	i	0.9	.	0	113	.	.
Cc1ccccc1N1CN(Cc2ccco2)CNC1=S	i	1	0.1	-10	100	3	137
C(=N\N(Cc1ccccc1)c1ccccc1)/c1ccco1	i	1.1	.	-11	102	-10	142
O=C(N/N=C/c1ccc(-c2cccc(C(F)(F)F)c2)o1)c1ccccc1Br	i	0.75	-1.0	5	105	20	110

# Screens: PubChem BioAssay, several laboratories
